# MT1-MMP promoter = MT1-MMP gene expression reporter suppression – cell-based, luciferase reporter, luminescence (AID 618). MT1-MMP promoter luciferase reporter cells, luminescence. calls from a first round at 10 µM; hits with a dose series show EC50 in µM. 87,000 compounds, 0.62% hits;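 active means over half of the reporter light lost at 10 µM or EC50 under 50 µM; inactive means the rest and hits that failed the dose series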;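 further: actives suppress MT1-MMP promoter-driven transcription so potencies describe inhibitors; HT1080 fibrosarcoma cells; overnight exposure; toxic or luciferase-blocking compounds were not removed from the actives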
# WNV NS2B-NS3 inh = WNV NS2B-NS3 proteinase inhibition; AID 577; z-score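 (tested at a level between 10 and 100 µM)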; P06935; WNV NS2B-NS3 protease, fluorogenic substrate Ex360/Em465; hits give low values; 65,000 compounds, 0.18% hits;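 active means z-score at -3 or under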;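 further: score is relative to mean and spread of the compound wells of a plate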
# Target sequence (P06935 1371-1501 limits assumed): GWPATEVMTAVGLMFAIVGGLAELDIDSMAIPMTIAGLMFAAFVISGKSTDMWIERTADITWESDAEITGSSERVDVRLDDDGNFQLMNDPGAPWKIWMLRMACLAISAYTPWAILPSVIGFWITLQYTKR
# Target sequence (P06935 1502-1679 limits assumed): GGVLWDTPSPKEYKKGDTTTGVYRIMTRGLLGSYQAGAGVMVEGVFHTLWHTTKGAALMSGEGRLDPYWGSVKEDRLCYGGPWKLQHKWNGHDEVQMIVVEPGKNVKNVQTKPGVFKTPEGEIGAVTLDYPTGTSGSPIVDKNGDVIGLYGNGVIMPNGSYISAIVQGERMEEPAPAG
# Hsc70 ATP site = Hsc70 inhibitors, probe displacement, primary screen, biochemical, fluorescence polarization (AID 568). 83,000 tested, under 10 active. one-dose displacement, % at 20 µM; IC50 in µM for titrated hits. Hsc70 fluorescence polarization, probe displacement; higher % means a stronger effect; strong numbers were not always called active;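 active means displacement above 50% without optical interference and an IC50 on retest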;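 further: ATPase domain with a fluorescein-tagged ATP probe; 0% = vehicle and 100% = excess ADP; read after one hour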
# * marks the source's active call; other numbers are inactive results; i = inactive; nt = no result given.
Structure	MT1-MMP promoter	WNV NS2B-NS3 inh	Hsc70 ATP site
O=C(COc1ccc(Cl)cc1)Nc1ccccc1C(=O)NCc1ccco1	i	0.83	0.1%
CCOC(=O)N1CCN(S(=O)(=O)c2cc(OCC(=O)NC3CCCCC3)c(C)cc2Cl)CC1	i	nt	0.1%
COC(=O)C1CCN(C(=O)c2ccc(Cl)c(S(=O)(=O)NCc3cccnc3)c2)CC1	i	-0.59	-3.0%
COc1ccc(Cl)cc1NC(=O)CN1CCC(n2nnc3cc(C)ccc32)CC1	i	0.87	0.5%
C=CCn1c(SCC(=O)Nc2nc(C)cs2)nnc1C(CO)NC(=O)c1ccccc1 (centres undefined)	i	0.04	-1.1%
CC(C)C(C(=O)Nc1ccc2c(c1)OCO2)N1C(=O)c2ccccc2C1=O (centres undefined)	i	-0.45	3.7%
CC(O)c1n(C)c(Cl)c[n+]1C (centres undefined)	i	-0.3	-1.4%
COc1ccccc1S(=O)(=O)Cc1ccc(C(=O)NCc2cccs2)o1	i	-0.9	8.1%
CCCCc1c(O)nc(SCCN(C)C)n(-c2ccccc2)c1=O	i	-0.3	1.0%
CCOC(=O)c1cc(NC(=O)C2CCCO2)cc(C(=O)OCC)c1 (centres undefined)	i	-0.57	1.7%

# Following part
Structure	MT1-MMP promoter	WNV NS2B-NS3 inh	Hsc70 ATP site
CCCNC(=O)NC(=O)CN1C(=O)NC(C)(c2ccc(C)cc2)C1=O (centres undefined)	i	-0.5	-2.4%
CN1CCCC(OC(=O)CCCC(=O)OC2CCCN(C)C2)C1 (centres undefined)	i	0.2	2.6%
CC(=O)N1CCc2cc(S(=O)(=O)CCC(=O)Nc3c(C)n(C)n(-c4ccccc4)c3=O)ccc21	i	1.34	-5.7%
Nc1ccc(S(=O)(=O)Nc2ccc(S(N)(=O)=O)cc2)cc1	i	-0.91	6.1%
CCC1=NC(c2ccc(OC)cc2OC)N(O)C1(C)C (centres undefined)	i	-0.51	-5.8%
Cn1c(SCC(=O)c2ccccc2F)nnc1C1CC1	i	0.04	6.9%
COc1ccc(Nc2nc3c(c(=O)n(C)c(=O)n3C)n2CCO)cc1	i	0.54	-1.2%
COc1ccc(OC)c(NC(=O)Nc2nnc(N3CCC(C)CC3)s2)c1	i	1.07	2.6%
O=C(NCc1cccs1)c1cccc(S(=O)(=O)N2CCCCC2)c1	i	0.08	2.4%
CC(=NC1CCN(Cc2ccccc2)CC1)c1c(O)[nH]c(=O)[nH]c1=O	i	0.57	-2.0%

# (more compounds)
Structure	MT1-MMP promoter	WNV NS2B-NS3 inh	Hsc70 ATP site
COc1ccc(-n2c(C)nc3c(cnn3-c3ccccc3)c2=O)cc1	i	-1.55	3.8%
CCc1cc2c(=O)n(N)c(CCC(=O)O)nc2s1	i	-0.65	-0.5%
CN(C)c1ccc(CN2CCCCCC2)cc1	i	1.49	-2.9%
CC(C)CC(NC(=O)C1CCC(C)CC1)C(=O)Nc1ccccn1 (centres undefined)	i	0.39	1.5%
C=C(C)Cn1c(N2CC(C)CC(C)C2)nc2c1c(=O)[nH]c(=O)n2C (centres undefined)	i	-0.23	4.1%
COc1ccc(-c2nnn(CCc3nn[nH]n3)n2)cc1OC	i	-0.7	7.5%
O=C(CN1CCOc2ccccc21)NCc1ccccc1	i	1.65	0.7%
Cc1cc2ncn(CCOc3ccccc3C#N)c2cc1C	i	1.02	1.1%
COc1cccc(C(=O)N(CN2CCCC2=O)c2cccc(Cl)c2)c1	i	1.85	-4.1%
COc1cc(S(=O)(=O)NC2CCCC2)ccc1F	i	nt	4.4%

# Additional entries follow:
Structure	MT1-MMP promoter	WNV NS2B-NS3 inh	Hsc70 ATP site
Cc1onc(-c2c(Cl)cccc2Cl)c1C(=O)Nc1c(C)n(C)n(-c2ccccc2)c1=O	i	1.16	-2.0%
CC1=Nn2c(nnc2-c2ccccc2Cl)SC1	i	-0.04	6.6%
COc1cc2c(C#N)c(N3CCc4ccccc4C3)nc(N)c2c(N)n1	i	0.2	-2.4%
Cn1c(SCCOc2cccc(Cl)c2)nnc1-c1ccncc1	i	-1.48	-7.9%
COc1cc(C(=O)N2CCCc3ccccc32)cc(OC)c1OC	i	nt	-3.7%
COc1ccc(C(=O)NC2CCN(CC(=O)Nc3cccc(C)c3)CC2)cc1OC	i	nt	-1.6%
O=C(O)C(CCCCN1C(=O)C2C3C=CC(C3)C2C1=O)N1C(=O)C2C3C=CC(C3)C2C1=O (centres undefined)	i	-1.13	-1.6%
O=C(C1Cc2ccccc2CN1S(=O)(=O)c1cccs1)N1CCCCC1 (centres undefined)	i	-1.44	0.3%
O=C1COc2ccc(C(=O)CSc3nnc(-c4cccs4)n3Cc3ccccc3)cc2N1	i	0.35	0.4%
COCCN(C(=O)Cn1nnc2ccccc21)C(C(=O)NC1CCCC1)c1ccc(OC)cc1OC (centres undefined)	i	nt	-3.5%

# Other structures.
Structure	MT1-MMP promoter	WNV NS2B-NS3 inh	Hsc70 ATP site
C/C(Cl)=C/CSc1nc2c(c(=O)[nH]c(=O)n2C)n1C(C)C	i	-0.37	-0.5%
O=C(Nc1ccc(N2CCOCC2)c(Cl)c1)c1cc(F)c(F)cc1Cl	i	nt	-0.9%
CCCNC(=O)c1c(N)n(-c2ccc3c(c2)OCO3)c2nc3ccccc3nc12	i	0.57	0.5%
CCc1ccc(S(=O)(=O)NC(CC(=O)O)c2ccccc2)cc1 (centres undefined)	i	0.04	-0.3%
CCOC(=O)C1CCN(CCC(=O)Nc2ccccc2)CC1	i	nt	1.3%
CCOC(=O)C1CCN(C(=O)CN(c2cccc(OC)c2)S(=O)(=O)c2ccccc2)CC1	i	1.15	0.9%
COc1cc(OC)cc(-n2nc(C(=O)N3CC(C)CC(C)C3)c3ccccc3c2=O)c1 (centres undefined)	i	nt	-0.7%
COc1ccccc1C(=O)Nc1ccc(NC(=O)c2ccco2)c(C)c1	i	nt	-1.3%
CC(C)(C)C1CCc2c(sc(NC(=O)c3cc(C4CC4)on3)c2C#N)C1 (centres undefined)	i	-0.83	6.3%
CN(C)c1ccc(-c2ccccc2)nn1	i	-0.42	2.2%

# Other entries:
Structure	MT1-MMP promoter	WNV NS2B-NS3 inh	Hsc70 ATP site
Cc1ccc2cccc(NC(=S)NC(=O)c3ccn(C)n3)c2n1	i	nt	-3.5%
COc1ccccc1NC(=O)C(C)Sc1nnnn1C (centres undefined)	i	0.03	2.5%
O=C(/C=C/NNC(=O)c1ccccc1)c1ccc(Br)cc1	i	nt	-0.4%
Cn1c(=O)c2c(SCc3ccccn3)nc(C3CC3)nc2n(C)c1=O	i	-0.16	5.2%
Cc1cc(C(=O)OCC(=O)NCCC(C)C)c2ccccc2n1	i	nt	4.6%
COc1cc(C#CC#CCN2CCCCC2)ccc1O	i	0.62	1.2%
Cn1c(CC(=O)Nc2ccccc2)nnc1SCCOc1ccccc1	i	1.37	11.5%
CCOC(=O)C1CCCN(Cc2ccccc2OCC)C1 (centres undefined)	i	0.41	10.0%
CCS(=O)(=O)N1CCC(C(=O)NCCCN2CCCCCC2)CC1	i	-0.24	-11.5%
COc1ccc(C(C(=O)OCCN(C)C)c2ccccc2)cc1 (centres undefined)	i	-0.11	3.0%

# Going on with the list.
Structure	MT1-MMP promoter	WNV NS2B-NS3 inh	Hsc70 ATP site
O=C(Oc1ccc(OC(=O)N2CCOCC2)cc1)c1ccccc1	i	-0.49	2.0%
CC1=C(C(=O)OCc2ccccc2)C(c2ccoc2)C(C#N)=C(N)O1 (centres undefined)	i	0.37	4.6%
CCC1(CC)Cc2ccccc2-c2nc3ccccc3c(=O)n21	i	nt	-2.1%
Cc1cc(C)nc(SCc2nnc(SCC(=O)N3CCOCC3)o2)n1	i	-0.91	-0.4%
Cc1cccnc1N(C(=O)Nc1ccccc1)C1=NCC(C)(C)S1	i	-0.45	3.9%
CCOC(=O)NCc1ccc(S(=O)(=O)Nc2c(C)cccc2C)cc1	i	nt	4.4%
COc1ccccc1NC(=O)N(Cc1ccco1)Cc1cc2ccc(C)c(C)c2[nH]c1=O	i	2.18	-2.9%
CCn1c(CNc2ccc(F)cc2)nnc1SCC(=O)Nc1ccccc1OC	i	nt	-1.8%
O=C(c1ccc(CS(=O)(=O)c2cccc(C(F)(F)F)c2)o1)N1CCN(c2ccccn2)CC1	i	0.53	-2.0%
Cc1ccc(-c2nc(N/N=C/c3ccncc3)c3ccccc3n2)cc1	0.57µM*	nt	1.1%

# (listing goes on)
Structure	MT1-MMP promoter	WNV NS2B-NS3 inh	Hsc70 ATP site
O=c1cc(-c2ccccc2)[nH]n1-c1nc2ccccc2s1	i	-0.2	-8.5%
Cn1c(SCC(=O)Nc2ccccc2F)nnc1-c1ccc(S(=O)(=O)N2CCOCC2)cc1	i	0.96	3.6%
Cn1cc(Br)cc2nc(C(F)(F)F)nc1-2	i	0.42	3.1%
CCOc1ccccc1N1CCN(C(=O)c2ccncc2)CC1	i	-0.17	-1.5%
CCOC(=O)CC(=O)CSc1nc(C)nc2c1oc1ccccc12	i	-0.22	1.2%
O=C(Nc1ccc2c(c1)OCO2)c1nn(-c2ccccc2)c(=O)c2ccccc12	i	0.57	6.8%
O=C(NCc1ccco1)c1cc2ccccc2c(=O)o1	i	0.42	-4.7%
C=CCOC(=O)C1=C(C)OC(N)=C(C#N)C1c1ccccc1F (centres undefined)	i	-0.23	5.5%
CNC(=O)c1cc2c(=O)n3cc(C)ccc3nc2n(C(C)C)c1=N	i	3.76	7.4%
CCOC(=O)c1ccn(-c2nc(-c3ccco3)cc(C(F)(F)F)n2)n1	i	-1.85	-0.4%

# Remaining list, next part:
Structure	MT1-MMP promoter	WNV NS2B-NS3 inh	Hsc70 ATP site
CSc1nc2ccc(S(=O)(=O)N3CCc4ccccc43)cc2s1	i	-0.33	1.5%
COc1ccc(C2C(C(C)=O)=C(O)C(=O)N2c2cccnc2)c(OC)c1 (centres undefined)	i	0.34	1.6%
O=C(Nc1ccncc1)c1cc2ccccc2o1	i	0.6	4.2%
Cn1nnc2cc(C(=O)N3CCCCCC3)ccc21	i	-0.57	-1.9%
COc1cccc(CNC(=O)C2(C)Oc3ccccc3NC2=O)c1 (centres undefined)	i	nt	2.4%
Cc1cc2ncn(C(=O)N3CCOCC3)c2cc1C	i	0.2	4.1%
Cc1cc(-c2nnc(SCC(=O)NC3CCCC3)o2)no1	i	0.23	-1.0%
O=c1c(-c2ccccc2)coc2c(CN3CCOCC3)c(O)ccc12	i	0.44	-1.4%
O=C1COc2ccccc2CN1	i	nt	-2.2%
CNC(=O)C1CCC(=O)N1Cc1ccc(C)cc1 (centres undefined)	i	-0.61	3.7%

# More records:
Structure	MT1-MMP promoter	WNV NS2B-NS3 inh	Hsc70 ATP site
CCOc1ccccc1NC(=O)N1C2CCCC1CC(NC(=O)C1CC1)C2 (centres undefined)	i	0.21	-0.9%
CCOC(=O)CN1C(=O)C(CC)Oc2ccc(Cl)cc21 (centres undefined)	i	0.5	-1.6%
O=C(NCc1ccc2[nH]c3c(c2c1)CCCC3)N1CCOCC1	i	-0.3	21.0%
CC(=O)Nc1ccc(S(=O)(=O)N2CCSC2c2ccccc2Cl)cc1 (centres undefined)	i	1.2	-3.6%
CN(C)/C=N/c1c(C#N)cnn1-c1ncnc2sc(-c3ccccc3)cc12	i	-1.25	-1.4%
CCN(CC)S(=O)(=O)c1cc(C(=O)Nc2ccncc2)ccc1Cl	i	-0.98	-8.2%
COc1ccc(-c2nc(CS(=O)CC(=O)NCc3ccco3)c(C)o2)cc1 (centres undefined)	i	0.92	-1.9%
COC(=O)c1[nH]c2ccc(C)cc2c1NC(=O)CN1CCCc2ccccc21	i	0.17	-2.2%
Cc1cc(=O)[nH]c(SCC(=O)Nc2ccc(Br)cc2)c1C#N	i	nt	0.6%
Cc1ccc(C2CC(=O)c3cnc(N4CCc5ccccc5C4)nc3C2)cc1 (centres undefined)	i	nt	-2.4%

# (cont.)
Structure	MT1-MMP promoter	WNV NS2B-NS3 inh	Hsc70 ATP site
CC1CN(c2cc3nccnc3cc2F)CC(C)O1 (centres undefined)	i	-0.61	2.8%
O=c1[nH]c(N2CCc3ccccc3C2)nc2c1CCCC2	i	0.03	0.3%
O=C(O)CSc1cnc2ccccc2n1	i	nt	-2.3%
Cc1cc(N2C(=O)C(O)=C(C(=O)c3ccco3)C2c2cccnc2)no1 (centres undefined)	i	0.66	-12.9%
CCCCCn1c(=O)[nH]c2cc(C(=O)NCCCN3CCCCC3)ccc2c1=O	i	0.77	3.1%
Cc1ccccc1CSc1nnc(-c2cccnc2)n1N	i	0.64	4.1%
O=C(Nc1nc2ccc(S(=O)(=O)N3CCCC3)cc2s1)C1CCCO1 (centres undefined)	i	-0.54	-1.0%
COc1ccc(N2C(=O)CC2(/C=C/c2ccccc2OC)C(=O)NC2CCCC2)cc1 (centres undefined)	i	nt	3.5%

# This is a random part of the collection; 0.87% or so of the library scored in one or more.
